YopH PTP inh = inhibitors of Yersinia enterocolitica YopH tyrosine phosphatase. fluorescence Ex485/Em525. inhibition, %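 (about 10 µM by stock and volumes)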. hit rate 0.16% among 140,000. AID 898;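 active = inhibition of 50% or more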;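 note: controls were vehicle for no effect and minimum signal wells for full effect; inactives centre near -20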
Mtb bLac sens = beta-lactam sensitization of Mtb H37Rv; M. tuberculosis H37Rv growth with meropenem, percent inhibition; hits of this screen are not shown here; inhibition, % at 25 µM; hit rate 0.27% among 330,000; AID 434955;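 active = about 74% or more and at least 40 points above the plate without the antibiotic, then above 30% in a dose series; inconclusive = first-round hits that could not be retested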;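 note: growth measured after seven days incubation then overnight dye step; 0% = bacteria only wells and 100% = bacteria with antibiotic; twin plates without the antibiotic show which effects depend on it; some results filed as inactive read as strong as hits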
RecA intein inh = inhibitors of M. tuberculosis RecA intein splicing. P9WHJ3. cell-free RecA intein splicing, fluorescence. inhibition, %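 (about 9 µM by stock and volumes)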. hit rate 0.75% among 290,000; in the data active = inhibition above about 30%; inconclusive = no clear call, values can overlap the other calls;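 note: 0% = vehicle wells and 100% = reference inhibitor control wells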
Target sequence (P9WHJ3 whole entry, looked up): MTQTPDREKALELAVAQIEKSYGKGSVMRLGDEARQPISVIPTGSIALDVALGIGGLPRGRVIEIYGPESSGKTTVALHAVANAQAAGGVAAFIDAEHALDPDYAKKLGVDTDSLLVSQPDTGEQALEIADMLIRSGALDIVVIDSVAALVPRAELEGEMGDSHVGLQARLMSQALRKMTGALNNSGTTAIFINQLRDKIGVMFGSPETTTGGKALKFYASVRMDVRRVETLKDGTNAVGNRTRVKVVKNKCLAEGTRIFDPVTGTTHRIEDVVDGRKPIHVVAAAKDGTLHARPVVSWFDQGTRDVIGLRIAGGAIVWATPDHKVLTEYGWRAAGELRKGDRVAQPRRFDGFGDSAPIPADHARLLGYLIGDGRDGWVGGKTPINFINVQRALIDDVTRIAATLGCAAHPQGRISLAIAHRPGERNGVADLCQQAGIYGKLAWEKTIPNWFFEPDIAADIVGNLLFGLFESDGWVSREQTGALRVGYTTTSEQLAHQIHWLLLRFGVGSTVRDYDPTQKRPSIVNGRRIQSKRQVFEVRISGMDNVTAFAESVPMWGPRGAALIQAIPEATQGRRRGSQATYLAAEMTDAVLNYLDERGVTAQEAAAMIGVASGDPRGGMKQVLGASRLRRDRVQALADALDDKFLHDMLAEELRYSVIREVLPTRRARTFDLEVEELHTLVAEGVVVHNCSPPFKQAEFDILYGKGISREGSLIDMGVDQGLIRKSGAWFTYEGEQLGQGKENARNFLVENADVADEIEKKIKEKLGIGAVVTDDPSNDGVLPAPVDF
Mtb H37Rv = M. tuberculosis H37Rv growth inhibitors, H37Rv strain (AID 1626) | M. tuberculosis H37Rv growth inhibition; higher % means a stronger effect | inhibition, % at 10 µM; hits with a dose series show IC50 in µM | hit rate 0.95% among 220,000;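 active = confirmed in a dose series; inconclusive = inhibition above 80% but not taken into the dose series; inactive = below 80% or under 30% at every dose of the series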;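 note: bacteria incubated seven days before Alamar blue readout; 0% = bacteria only wells and 100% = bacteria with antibiotic wells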
Arbovirus inh = antivirals against arbovirus infection. hit rate 0.37% among 200,000. arbovirus infection cell-based antiviral screen. AID 1251. inhibition, % at 10 µM;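 active = inhibition from about 30%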;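 note: bluetongue infection of BSR cells; cell survival read as ATP light after 72 h; 0% = infected wells without compound and 100% = uninfected wells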
Arbovirus inh repeat = further read-out of Arbovirus inh, marked with its call; inhibition, %; measured here: 10K subset replicate screen; many hits read low in the repeat;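 first of two repeat runs on a subset; 0% = infected and 100% = uninfected wells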
Starred values were filed as active, the others as inactive; u = inconclusive; x = not tested or not shown.

SMILES | YopH PTP inh | Mtb bLac sens | RecA intein inh | Mtb H37Rv | Arbovirus inh | others
CC12CC(NC(=O)N1c1cccc(C(=O)Nc3ncn[nH]3)c1)c1ccccc1O2 (centres undefined) | 0 | -9 | 2.2 | -2% | 1
COc1cccc(CN(C)CC(=O)Nc2cc3oc4ccccc4c3cc2OC)c1 | 16 | 79 | 1.1 | 42% | -9
O=C(COc1ccc2c3c(c(=O)oc2c1)CCC3)NCC(O)c1ccccc1 (centres undefined) | x | 3 | -1.2 | x | x
COc1ccc(CCC(=O)NCCOc2ccc(C)cc2)cc1 | x | 10 | -0.2 | x | x
O=[N+]([O-])c1ccccc1/C=C/C=N/n1c(-c2ccccc2F)n[nH]c1=S | x | 1 | -0.3 | 2% | x
Cc1cc(C(=O)NN)n[nH]1 | x | -1 | -0.8 | x | x
Cc1cc(C)cc(N(C(=O)Cc2cccs2)C(C(=O)NC2CCCCC2)c2ccccn2)c1 (centres undefined) | 4 | -5 | -2.5 | -2% | -14
CC(C)Cn1c(N)c(C(=O)COC(=O)c2ccccc2Cl)c(=O)n(C)c1=O | x | 1 | -0.8 | 2% | 15
CCCn1c(N2CCN(Cc3cccc(C)c3)CC2)nc2c1c(=O)[nH]c(=O)n2C | -31 | 0 | 0.9 | 11% | -5 | Arbovirus inh repeat=7
CN1c2ccsc2C(O)=C(C(=O)Nc2ccccc2)S1(=O)=O | -32 | -9 | x | -4% | 4
CC1=C(C(=O)Nc2cccnc2)C(c2ccncc2)n2nnnc2N1 (centres undefined) | -33 | -2 | -1.0 | -8% | 8
COc1cccc(-c2cnc(NCc3cc(Cl)ccc3O)n2C)c1 | -45 | 100 | 1.6 | 7% | 6
CCN1CC(O)=C(c2nc3ccccc3s2)C1=N | -5 | -1 | -0.2 | 0% | -2
Cc1nn(Cc2ccc(Cl)cc2Cl)c(C)c1NC(=O)c1ccc(COc2cc(Cl)ccc2Cl)o1 | -72 | -10 | 0.2 | -1% | -21
CCCn1c(SCC(=O)c2c(C)[nH]c(C)c2C(=O)OCC)nc2ccccc21 | -6 | 3 | -0.2 | 5% | -4
COc1ccc(CNC(=S)NC2CCCC2)cc1 | -21 | -8 | 1.2 | 0% | -2
COC(=O)CSc1nn(-c2ccc(F)cc2)c(=S)s1 | x | 89 | 3.3 | 51% | 1
O=C(Nc1ccccc1Oc1ccsc1C(=O)O)c1ccccc1F | x | -6 | -0.1 | x | x
COc1ccccc1NC(=O)N(Cc1ccco1)Cc1cc2cc(C)cc(C)c2[nH]c1=O | -31 | -3 | 3.4 | 11% | -25
Cc1nc2ccc(S(=O)(=O)NCC(=O)N(C)Cc3ccco3)cc2s1 | -31 | -4 | 0.3 | -1% | 1
N#CCc1ccc(Oc2ncc(C(F)(F)F)cc2Cl)cc1 | x | 5 | 0.8 | 6% | -1
Cc1cccc(Nc2ncnc3ccccc23)c1 | -39 | 3 | 0.1 | -7% | 0
CCC(=O)Nc1ccc(S(=O)(=O)Nc2cccnc2)cc1 | -3 | 3 | 0.1 | -14% | 3
Cc1ccc(S(=O)(=O)N(CCO)Cc2ccccc2)cc1 | x | -2 | -1.6 | x | x
CCCc1cc(=O)oc2c(CN3CCN(C)CC3)c(O)c(Cl)cc12 | x | 0 | -96 | -6% | 5

Further structures:
SMILES | YopH PTP inh | Mtb bLac sens | RecA intein inh | Mtb H37Rv | Arbovirus inh | others
O=[N+]([O-])C(=C1NCCN1)C(Cl)=C(Cl)Cl | x | -6 | 0.9 | 0% | -2
O=C(/C=C/c1ccc(Cl)cc1)N1CCN(c2ccc(Cl)cc2[N+](=O)[O-])CC1 | -4 | 96 | 10 | 5% | -6
COc1ccc(/C=N/NS(=O)(=O)c2ccccc2)cc1OS(=O)(=O)c1ccc(C)cc1 | -23 | 5 | 6.2 | 8% | 5
COc1ccc(-c2csc(NC(=O)CSc3nc(C)nc4sc(C(=O)O)c(C)c34)n2)cc1 | x | 70 | 3.0 | -2% | x
Oc1ccc(/C=N/Nc2ncnc3nc[nH]c23)cc1 | x | -2 | -4.8 | -2% | x
CS(=O)(=O)N(CC(=O)N1CCC(C(N)=O)CC1)c1cc(C(F)(F)F)ccc1Cl | x | -4 | -0.8 | -9% | 0
Cn1c(-c2ccc(Br)cc2)cnc1NCc1cccnc1 | -7 | -2 | -1.3 | 2% | -15
COC(=O)Cc1c(C)c2c(O)cc(C)cc2oc1=O | 11 | -5 | 0.6 | 4% | 5
Cc1cc(C)c(S(C)(=O)=O)c(Sc2ccc(Cl)cc2)n1 | -9 | 0 | -0.7 | 7% | 0
COc1ccccc1S(=O)(=O)Cc1ccc(C(=O)N2CCN(c3ccccc3)CC2)o1 | -38 | 2 | -0.8 | -12% | -5
O=C(COC(=O)c1ccccc1Br)NCc1ccccc1 | -13 | 12 | 1.3 | 73% | 5
CCOC(=O)c1cc(-c2ccncc2)nc2c1c(C)nn2C | -42 | -9 | -5.7 | 1% | -24
CCn1cc(C(=O)N(C)CC(OC)OC)c(=O)c2cc(S(=O)(=O)N3CCOCC3)ccc21 | x | -2 | -3.4 | x | x
CSc1ccc(CN2CCN(Cc3ccccc3)C(CCO)C2)cc1 (centres undefined) | x | -8 | 3.8 | -4% | -6
O=C(O)c1ccccc1CSc1nc2ccccc2o1 | -86 | -1 | 0.8 | -1% | 8
CC(C)Cn1c(N)c(C(=O)COC(=O)C2CC(=O)N(c3ccc4c(c3)OCCO4)C2)c(=O)n(C)c1=O (centres undefined) | x | -2 | 0.2 | x | x
CCOc1ccc(CC(=O)NNC(=S)NCCc2ccccc2)cc1 | x | 6 | 5.8 | -6% | -9
Cc1c(/C=C/C(=O)c2ccc(O)cc2)cnn1C | -23 | -2 | -0.8 | 3% | 4
CCC1SC2=NC(C)=C(C(=O)OC)C(c3cccs3)N2C1=O (centres undefined) | -23 | 1 | 1.5 | x | 0
C[N+](C)(C)CCCCCC(=O)/C=N/O | -13 | -10 | 0.5 | 1% | -7
COc1ccc(NC(=O)Cn2cnc3c(oc4nc5c(cc43)COC(C)(C)C5)c2=O)cc1 | x | 4 | -0.3 | 1% | x
COc1cccc(N(CC(=O)NCCSc2ccccn2)S(C)(=O)=O)c1 | -19 | 3 | 0.1 | -3% | -4
COC(=O)C1=C(O)/C(=C\c2ccc(OCC(=O)Nc3ccccc3)cc2)N=C1C | x | u | -2.2 | x | x
COc1ccc(C2CC(c3ccccc3)=NN2c2ccc(S(N)(=O)=O)cc2)cc1OC (centres undefined) | x | -3 | -40 | 8% | -15
O=C(CSc1nnc(-c2ccc(S(=O)(=O)N3CCCC3)cc2)n1CC1CCCO1)NC1CC1 (centres undefined) | -46 | -7 | -2.3 | -7% | 6

Compounds above containing a thiophene ring, fused or not:
SMILES | YopH PTP inh | Mtb bLac sens | RecA intein inh | Mtb H37Rv | Arbovirus inh | others
Cc1cc(C)cc(N(C(=O)Cc2cccs2)C(C(=O)NC2CCCCC2)c2ccccn2)c1 (centres undefined) | 4 | -5 | -2.5 | -2% | -14
CN1c2ccsc2C(O)=C(C(=O)Nc2ccccc2)S1(=O)=O | -32 | -9 | x | -4% | 4
O=C(Nc1ccccc1Oc1ccsc1C(=O)O)c1ccccc1F | x | -6 | -0.1 | x | x
COc1ccc(-c2csc(NC(=O)CSc3nc(C)nc4sc(C(=O)O)c(C)c34)n2)cc1 | x | 70 | 3.0 | -2% | x
CCC1SC2=NC(C)=C(C(=O)OC)C(c3cccs3)N2C1=O (centres undefined) | -23 | 1 | 1.5 | x | 0

The list continues:
SMILES | YopH PTP inh | Mtb bLac sens | RecA intein inh | Mtb H37Rv | Arbovirus inh | others
CC(=O)Oc1cccc(N2C(=O)c3ccc(C(=O)Nc4cccnc4)cc3C2=O)c1 | x | -8 | -2.7 | 2% | 4
Nc1c2c(nc3sc4c(c13)CCCCC4)CCCC2 | -19 | 100 | -0.6 | u | 18
CC(=O)c1ccc(N2Cc3ccccc3/C2=N\C(=O)Nc2ccccc2)cc1 | -34 | 4 | -2.0 | 4% | -3
CN(Cc1ccccc1)C(=O)c1ccccc1NC(=O)C1CC1 | x | -6 | 1.8 | -3% | 0
CC1CCCC(C)N1C(=O)CSc1nc(N)cc(N)n1 (centres undefined) | x | 1 | -0.3 | x | x
COc1ccc2nc(NC(=O)C(NS(=O)(=O)c3cccc4nsnc34)C(C)C)sc2c1 (centres undefined) | -49 | 5 | x | x | -2
C/C(Cc1ccccc1)=N\NC(=O)c1ccc(F)cc1 | -20 | 4 | -0.8 | 1% | 4
Cc1ccc(N2CN(Cc3cccnc3)CNC2=S)c(C)c1 | -28 | 3 | 1.5 | 5% | 8
O=C1CC(C(=O)Nc2ccc(Cl)c(Cl)c2)S/C(=N\N=C\c2ccco2)N1 (centres undefined) | x | -4 | 1.7 | 2% | x
CCn1cc(C(=O)N2CCCC2)c(=O)c2cc(S(=O)(=O)N(C)C)ccc21 | -38 | -4 | 2.0 | 0% | -3 | Arbovirus inh repeat=3
O=Cc1cccn1-c1ncc(Br)cn1 | x | -9 | 0.9 | -4% | -1
CC(=O)OC1CC(C)(C)N(OC(=O)c2ccc(N)cc2)C(C)(C)C1 | -33 | 0 | -4.4 | 1% | 4
O=C(CN(c1cccc(C(F)(F)F)c1)S(=O)(=O)c1ccc(Cl)c([N+](=O)[O-])c1)NCc1ccccc1 | -13 | 11 | 6.7 | -2% | -8
CCOc1ccccc1NC(=O)Cn1c(=O)n(-c2ccc(OC)cc2OC)c(=O)c2c(C)c(C(=O)N(CC)CC)sc21 | x | 0 | 3.2 | -7% | 10
Cc1nc2ccc(S(=O)(=O)N(C)CC(=O)NCCc3ccccc3)cc2s1 | x | -3 | -3.4 | x | x
CCOC(=O)c1[nH]c(C)c(CCC(=O)OC)c1C | -13 | -21 | x | 10% | 6
CCn1c(=O)c(C(=O)CN2CCOCC2)c(N)n(Cc2ccccc2)c1=O | -23 | u | 2.8 | -3% | 4
COc1cccc(C(=O)Nc2nnc(S(=O)(=O)N3CCCCC3)s2)c1 | x | 8 | 1.3 | x | x
COc1ccccc1C1CCN(C(=O)c2cccs2)CC1 | x | 41 | -0.4 | -3% | x
Cc1occc1C(=O)NCc1ccco1 | 5 | -2 | -1.8 | 3% | -3
O=C(C[n+]1cc(-c2ccc(F)cc2)n2c1CCC2)N1c2ccccc2Sc2ccccc21 | -31 | 91 | 1.1 | 39µM* | -11
CN1C(=O)NC(c2ccc(Cl)cc2)C2=C1CC(C)(C)CC2=O (centres undefined) | x | -4 | -1.9 | x | x
COc1ccc(-c2csc(Cc3nnc(N4CCOCC4)n3-c3ccccc3)n2)cc1OC | -12 | x | 0.6 | 3% | 1
CCN(CC)C(CNS(=O)(=O)c1ccc(Cl)cc1)c1ccccc1 (centres undefined) | x | -2 | -0.2 | 7% | -1
O=C(/C=C/c1ccccc1)NCCc1cnc[nH]1 | x | -3 | -1.9 | -4% | -6 | Arbovirus inh repeat=-1

Additional results.
SMILES | YopH PTP inh | Mtb bLac sens | RecA intein inh | Mtb H37Rv | Arbovirus inh | others
O=C(Nc1ccncc1)Nc1cccc(Cl)c1Cl | x | 6 | 3.7 | x | x
O=C(Cc1c(F)cccc1Cl)Nc1ccccc1C(=O)N1CCOCC1 | x | -14 | 0.4 | x | x
CC(=O)c1sc(NC(=O)c2ccccc2)nc1-c1ccccc1 | x | 4 | x | 3% | -5
Cc1ccccc1Nc1c([N+](=O)[O-])ccc2nonc12 | x | -1 | -1.7 | x | x
CC12CCC(C)(c3nc4ccccc4nc31)C2(C)C | x | 4 | -3.5 | -5% | 1
COC(=O)Cc1csc(/N=C/c2c(O)n(-c3cccc(C(F)(F)F)c3)c(=O)c3ccccc23)n1 | -23 | 0 | x | 3% | -12
CN1CCN(CCCNC(=O)CN2C(=O)COc3ccccc32)CC1 | x | 5 | -3.9 | x | x
CC(=O)Oc1c(C)c(OC(C)=O)c2c(c1C(C)=O)OC1CC(=O)C(C(C)=O)=C(O)C21C (centres undefined) | x | 20 | 0.0 | x | x
COC(=O)c1c(NC(=O)C2CC(=O)NN2Cc2ccccc2)sc(C)c1C (centres undefined) | -41 | -6 | -3.5 | -18% | 4
NC(=O)NCCc1ccccc1 | x | -5 | -0.9 | x | x
O=C(CCc1ccc(Oc2cc([N+](=O)[O-])cc([N+](=O)[O-])c2)cc1)N1CCCCCC1 | -22 | 97 | 17 | 7.5µM* | -5
COc1c(F)cc2[nH]c3c(c2c1F)CCNC3=O | x | -7 | 0.2 | 9% | x
CC1CN(C(=O)c2ccc(NS(=O)(=O)c3ccc(F)cc3)cc2)CC(C)O1 (centres undefined) | x | -11 | -1.7 | x | x
Cc1cc(-c2ccccc2)nc(N(C)NC(=O)C2CC2)c1S(C)(=O)=O | x | -12 | -1.5 | 7% | 6

These rows are one share of the data; rates above refer to the full screens.
